Screening results from PubChem BioAssay.
KCNQ2 inh – KCNQ2 potassium channel inhibitors, primary screen, cell-based, CHO-K1, FluxOR thallium flux, B-score (AID 2156). 20 min; active compounds read low; only compounds with negative scores are shown here; some inactives read as strong as hits. B-score at 10 µM. 310,000 tested, 1.1% active;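 active means fluorescence ratio B-score at most minus 3 library SDs, with starting brightness B-score within 2 library SDs, cut at about -5.5 in these data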
Target sequence (O88943 whole entry, looked up): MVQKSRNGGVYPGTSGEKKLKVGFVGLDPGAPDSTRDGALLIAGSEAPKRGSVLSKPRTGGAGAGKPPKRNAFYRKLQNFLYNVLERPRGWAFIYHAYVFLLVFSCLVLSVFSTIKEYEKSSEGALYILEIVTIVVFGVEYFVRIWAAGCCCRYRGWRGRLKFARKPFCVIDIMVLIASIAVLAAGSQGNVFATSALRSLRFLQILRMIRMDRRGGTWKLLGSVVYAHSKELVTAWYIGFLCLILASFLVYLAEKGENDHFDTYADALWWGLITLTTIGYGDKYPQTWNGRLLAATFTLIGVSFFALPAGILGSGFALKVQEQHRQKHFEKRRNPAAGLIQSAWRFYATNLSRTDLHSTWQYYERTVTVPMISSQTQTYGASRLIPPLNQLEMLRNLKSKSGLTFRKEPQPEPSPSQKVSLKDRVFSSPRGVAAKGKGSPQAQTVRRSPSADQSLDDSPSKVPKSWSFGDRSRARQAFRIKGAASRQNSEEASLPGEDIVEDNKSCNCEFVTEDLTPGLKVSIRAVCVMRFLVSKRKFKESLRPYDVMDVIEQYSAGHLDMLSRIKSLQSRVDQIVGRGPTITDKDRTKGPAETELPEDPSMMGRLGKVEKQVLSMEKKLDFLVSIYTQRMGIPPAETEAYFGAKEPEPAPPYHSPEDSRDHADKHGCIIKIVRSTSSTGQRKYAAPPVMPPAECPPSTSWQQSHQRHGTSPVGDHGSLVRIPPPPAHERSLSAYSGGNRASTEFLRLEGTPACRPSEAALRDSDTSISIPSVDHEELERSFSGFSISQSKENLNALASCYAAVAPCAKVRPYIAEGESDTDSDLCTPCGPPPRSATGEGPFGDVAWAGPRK
KCNQ2 inh baseline – recorded beside KCNQ2 inh, whose call it bears; B-score; measured here: initial fluorescence intensity artifact check;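 brightness before thallium and not channel activity; 0 = typical well and far values either way flag optical interference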
Active calls of the source: *; i = inactive; & = joins results of further samples. This is a subset; the hit share may differ from the screen's.

SMILES	KCNQ2 inh	KCNQ2 inh baseline
O=C(Cn1nnc2c(sc3nc4c(c(-c5ccccc5)c32)CCC4)c1=O)c1ccccc1	i	0.51
COc1ccc(OC)c(N2C(=O)C(Cl)=C(N3CCCCC3)C2=O)c1	i	-0.01
Cc1csc(NC(=O)CCc2nc3ccccc3s2)n1	i	-0.53
CCOC(=O)C1CCN(Cc2c(C(=O)N3CCOCC3)nc3c(C)cccn23)CC1	i	-0.01
Oc1ccc(/C=N/Nc2nc(N3CCCCCC3)nc(N3CCCCCC3)n2)c(O)c1	i	0.47
COc1cccc2cc(-c3nnc(SCC(=O)Nc4cc(C(F)(F)F)ccc4Cl)n3N)oc12	i	0.04
COc1ccc(NC(=O)CN(C)C(=O)/C=C/c2cn(Cc3ccccc3)nc2-c2cccnc2)cc1	i	0.21
CC1CCN(C(=O)CN(c2ccccc2)S(=O)(=O)N(C)C)CC1	i	1.2
COC(=O)c1ccc(/C=C(\C#N)c2ccccn2)cc1	i	-0.53
CCOc1ccc(OCC)c(NC(=O)c2ccc(CNc3c(N4CCOCC4)c(=O)c3=O)cc2)c1	i	-0.75
CCCNC(=O)c1onc(CSc2ccc(F)cc2)c1C(=O)NC(C)C	i	-0.15
COc1ccc(C2C(C(=O)N3CCN(C)CC3)c3cc(OC)c(OC)cc3C(=O)N2C)cc1 (stereo not given)	i	1.6
O=C1c2cccc3c(N4CCCCC4)ccc(c23)C(=O)N1CCO	i	3.5
COc1ccccc1OCCOc1ccc(/C=C2/C(=N)N3OC(C)=CC3=NC2=O)cc1OC	i	0.28
Clc1ccc(OCc2nnc(SCCN3CCCCC3)n2Cc2ccco2)cc1	i	1.2
O=C(CC(=O)NCc1ccc(Cl)cc1)NCc1ccc(Cl)cc1	i	-1.8
COc1cccc(OC)c1C(=O)Nc1nc(-c2ccccc2)cs1	i	-0.75
COc1ccc(C(CC(=O)O)N2Cc3ccccc3C2=O)cc1 (stereo not given)	i	-0.06
CC1CC(C)CN(CC(=O)c2c[nH]c3ccccc23)C1 (stereo not given)	i	-0.77
CCCSCCCNC(=O)Cn1c(=O)c2cccn2c2ccccc21	i	2.2

Among those listed so far, two contain a furan ring, fused or not:
SMILES	KCNQ2 inh	KCNQ2 inh baseline
COc1cccc2cc(-c3nnc(SCC(=O)Nc4cc(C(F)(F)F)ccc4Cl)n3N)oc12	i	0.04
Clc1ccc(OCc2nnc(SCCN3CCCCC3)n2Cc2ccco2)cc1	i	1.2

Other records follow.
SMILES	KCNQ2 inh	KCNQ2 inh baseline
CC1(C(=O)O)CCC(C(=O)NCCc2ccccc2)C1(C)C (stereo not given)	i	-2
CCn1c2ccccc2c2nnc(SCC(=O)NCc3cccs3)nc21	i	-0.04
CC1=C/C(=N\NC(=O)c2cccs2)CC(C)(C)C1	i	1.6
CCN(CC)c1ccc(S(=O)(=O)N2CCOCC2)cc1NC(=O)CN1C(=O)NC2(CCC(C)CC2)C1=O (stereo not given)	i	-0.85
COc1ccc(CCNC(=O)CSc2nc3[nH]ncc3c(=O)n2-c2ccc(Cl)cc2Cl)cc1OC	i	0.9
CCN1CCN(CCC(=O)Nc2ccccc2C)CC1	i	0.36
Cc1ccc(OCC(=O)NC(C)c2ccccc2)c([N+](=O)[O-])n1 (stereo not given)	i	-1.6
CC(C)(C)C1CCC(C(=O)OCC(=O)N2CCOCC2)CC1 (stereo not given)	i	-1.4
CN(c1ccc(C(=O)N2CCOCC2)cc1)S(C)(=O)=O	i	1.2
CC1(C)S/C(=N/N=C/c2cccs2)NC1=O	i	0.97
COc1ccc(Nc2nc3cc(C)ccc3cc2C#N)cc1	i	-0.16
O=C(c1cc2ccccc2cc1O)N1CCN(c2cccc(Cl)c2)CC1	i	0.04
CS(=O)(=O)N(CC(=O)N1CCN(Cc2ccccc2)CC1)c1cccc([N+](=O)[O-])c1	i	-2.3
C(=N\Nc1nncc2ccccc12)/c1ccccc1	i	0.06
COc1ccc(-n2c(C)cc(C(=O)CSc3nnc(-c4cccs4)o3)c2C)cc1	i	2.4
O=C(NCCN1CCCC1)C1COc2ccccc2O1 (stereo not given)	i	1.8
O=C(COC(=O)CCCN1C(=O)c2cccc3cccc(c23)C1=O)Nc1ccc(Cl)cc1	i	1
COc1ccccc1-c1cn(S(=O)(=O)c2ccc(F)cc2)nc1N	i	-1.7
CC1CCN(Cc2c(C(=O)N/N=C/c3cccc(Cl)c3)nnn2-c2nonc2N)CC1	i	0.22
CCOCCCNS(=O)(=O)c1ccc2c(c1)CCN2C(=O)CC	i	1.6

Shown with bars between the fields: entries from further up
mol | KCNQ2 inh | KCNQ2 inh baseline
CCN(CC)c1ccc(S(=O)(=O)N2CCOCC2)cc1NC(=O)CN1C(=O)NC2(CCC(C)CC2)C1=O (stereo not given) | i | -0.85
O=C(NCCN1CCCC1)C1COc2ccccc2O1 (stereo not given) | i | 1.8
Cc1ccc(OCC(=O)NC(C)c2ccccc2)c([N+](=O)[O-])n1 (stereo not given) | i | -1.6
CCOCCCNS(=O)(=O)c1ccc2c(c1)CCN2C(=O)CC | i | 1.6
O=C(COC(=O)CCCN1C(=O)c2cccc3cccc(c23)C1=O)Nc1ccc(Cl)cc1 | i | 1
CC1(C)S/C(=N/N=C/c2cccs2)NC1=O | i | 0.97

(cont.)
SMILES	KCNQ2 inh	KCNQ2 inh baseline
COC(=O)c1ccc(CNC(=O)c2c3c(nc4ccccc24)CCN(Cc2ccccc2)C3)cc1	-6.2*	1.6*
Cc1nn(C)cc1-c1csc(N)n1	i	1
CCN1/C(=C/c2cc[n+](CCCS(=O)(=O)[O-])c3ccccc23)Sc2ccccc21	i	1.4
CCOc1cc(/C=N/NC(=O)c2cccc(S(=O)(=O)N3CCCC3)c2)ccc1OCC(=O)N(C)C	i	0.41
COC(=O)c1ccccc1NC(=O)N1CCN(c2ccc(F)cc2)CC1	i	1.4
CCCc1nc2ccccc2c(C(=O)OCC(=O)Nc2ccc(S(=O)(=O)N3CCOCC3)cc2)c1CC	i	-0.15
Cc1ccc(N(C(=O)NC2CCCCC2)C2=NCCCCC2)cc1	-5.8*	-0.1*
Cn1nnnc1SCC(=O)N1CCN(C(c2ccccc2)c2ccccc2)CC1	i	-1.5
CCO[C@H]1OC(C(=O)N2CCN(Cc3ccc4c(c3)OCO4)CC2)=C[C@@H](c2ccc(C(F)(F)F)cc2)[C@@H]1CCCO	i	-1.9
CCc1nc2sc3c(=O)n(N)cnc3c2c2c1COC(C)(C)C2	i	0.23
O/N=C(\c1ccc(Cl)cc1)c1cc2ccccc2o1	i	-0.6
COC(=O)N/N=C/c1cc(Cl)cc(Cl)c1OCc1ccccc1F	i	3.4
CCN(CC)C(=O)N1CCN(Cc2ccc3c(c2)OCO3)CC1	i	0.02
O=C(c1cc(Sc2cccc(Cl)c2)nc2ccccc12)N1CCN(c2ccccn2)CC1	i	-1.5
COc1ccc(-c2nn(CCC(=O)O)cc2CCC(=O)O)cc1	i	-0.49
CCc1nc2ccc(C(=O)N3CCN(c4cccc(OC)c4)CC3)cc2nc1CC	i	-1.6
CC(c1ccc(O)cc1)(c1ccc(O)cc1)c1ccc(CCBr)cc1	i	-1
CCCn1c(SCC(=O)NC(=O)NC(C)(C)C)n[nH]c1=O	i	-0.01
Cc1ccc(N2C(=O)/C(=C\c3ccco3)SC2=S)cc1	i	0.94
CC(=O)Nc1ccc(S(=O)(=O)N2CCc3ccccc3C2)cc1	i	0.6
O=C(N/C(=C/c1cccnc1)C(=O)N1CCCCCC1)c1ccccc1	i	0.58
CCn1cnc2c1c(=O)n(Cc1ccc(C(=O)OC)cc1)c(=O)n2Cc1ccccc1	i	-1.3
O=C(NCCc1ccccc1)C1CC(c2ccccc2O)=NO1 (stereo not given)	i	0.01
CN(C)c1ccc(NC(=O)Nc2ccc3c(c2)nnn3C)cc1	i	0.06
COc1cccc(C(=O)O/N=C(\N)c2ccccn2)c1	i	0.07
O=C(COc1ccccc1)NCCSCc1ccc(Cl)cc1	-6.6*	-0.84*
Cc1cc(S(=O)(=O)NC2CCN(Cc3ccccc3)CC2)c(C)cc1Cl	i	-0.14
CC(C)C1Cc2c(sc3ncnc(NN)c23)CO1 (stereo not given)	i	-0.63
CC(C)(C)NC(=O)C1Cc2ccccc2CN1C(=O)Nc1cccc(Cl)c1 (stereo not given)	i	-1.1
COC(=O)CCCCC1SCC(NC(=O)c2ccccc2)C1OC(C)=O (stereo not given)	i	0.27
Cc1nnc(SCC(=O)Nc2ccc(S(=O)(=O)Nc3ccc(Cl)nn3)cc2)s1	i	-0.24
CC1CCN(CCCNC(=O)CCNC(=O)Cn2cnc3ccccc3c2=O)CC1	i	-2.6
CN1C(=O)/C(=C/c2ccccc2OCc2ccc(C(=O)O)cc2)NC1=S	i	0.86
CCCOc1ccc(CC(=O)NCCc2ccccc2)cc1OC	i	-1.8
CCCOc1ccc(/C=C/c2[nH]c(=O)[nH]c(=O)c2[N+](=O)[O-])cc1OCC	i	0.27
Cc1cc(C(=O)NNC(=O)/C=C/c2ccccc2Cl)c(C)o1	i	0.15
Clc1ccc(Cl)c2sc(N3CCOCC3)nc12	i	1.6
CCN(Cc1ccncc1)C(=O)c1ccc(Br)o1	i	-0.97
COc1ccc(Cl)cc1C(=O)Nc1ccc(CN2CCCCC2)cc1	i	0.45
O=C(OCC(=O)N1CCOCC1)c1ccccc1Cc1ccccc1	i	0.02
CN(Cc1ccc(F)cc1)C(=O)c1cccc(S(=O)(=O)N2CCN(c3ccc(F)cc3)CC2)c1	i	0.39
COc1ccc2c(c1[N+](=O)[O-])CCC/C2=N/OC(=O)c1cccc2ccccc12	i	0.43
C=C1CCN([C@@H](CC(C)C)C(=O)NCc2cc(OC)c(OC)c(OC)c2)S(=O)(=O)c2ccccc21	i	-2
O=C(/C=C/c1ccc([N+](=O)[O-])cc1)N1CCN(S(=O)(=O)c2cccs2)CC1	i	-2
COCC(C)N1CCC(Oc2ccc(C(=O)NCc3ccccn3)cc2)CC1 (stereo not given)	i	1.2
O=C(NC1CCCCCCC1)C1c2ccccc2C(=O)N1Cc1ccco1 (stereo not given)	i	-0.56
CC1CCN(C(=O)CCC(=O)N2CC(C)Oc3ccccc32)CC1 (stereo not given)	i	0.36
COc1ccc(CN(C(=O)CSc2nnc(-c3ccc(OC)c(OC)c3)o2)c2ccc(F)cc2)cc1	i	-1.6
O=C(C1CCCC1)N1CCN(S(=O)(=O)c2ccc(F)c(F)c2F)CC1	i	0.6
COc1ccc(-c2csc3ncnc(Oc4ccc5c(C)cc(=O)oc5c4)c23)cc1	i	-0.46
Cc1cccc2cc(CN(Cc3ccc(F)cc3)Cc3nnnn3C3CCCC3)c(=O)[nH]c12	i	1.6
O=C(/C=C/c1cccc([N+](=O)[O-])c1)NCCSCc1c(Cl)cccc1Cl	i	1.2
O=S(=O)(Nc1ccc(-c2nc3cccnc3s2)cc1)c1cc(F)ccc1F	i	-0.35
CN[C@H]1CC[C@@H](c2ccc(Cl)c(Cl)c2)c2ccccc21	i	0.66&0.17
COc1ccc(C2=NN(C(=O)CCC(=O)O)C(c3ccccc3F)C2)cc1 (stereo not given)	i	0.01
O=C(Nc1nnc(Cc2ccccc2)s1)c1cccs1	i	1.6
CC(C)(C)c1ccc(Oc2cccc(C3CC(=O)C(C4NCCc5ccccc54)C(=O)C3n3cncn3)c2)cc1 (stereo not given)	i	-0.09
CC(NC(=O)COC(=O)c1cn(-c2ccccc2)nc1-c1cccs1)c1ccccc1 (stereo not given)	i	-1.1
Cc1ccc(C2C3CSCC=C3C(C#N)=C(N)C2(C#N)C#N)cc1 (stereo not given)	i	-0.03
CCOc1ccccc1C1c2[nH]c3ccccc3c2C[C@H]2C(=O)N(C3CCN(Cc4ccccc4)CC3)CC(=O)N12 (stereo not given in full)	i	0.24

Following part.
SMILES	KCNQ2 inh	KCNQ2 inh baseline
O=C1c2cccnc2C(Nc2cccc(F)c2)N1Cc1ccco1 (stereo not given)	i	-2.9
Cc1nc(N2CCC(C)CC2)c2c(C)c(C(=O)Nc3cccc(C(F)(F)F)c3)sc2n1	i	1.3
O=C(COc1ccc(Cl)cc1)NCCNC(=O)c1cnccn1	i	-1.7
Cc1ccc(S(=O)(=O)N2CCOCC2)cc1C(=O)NC(=S)N1CC(C)CC(C)C1 (stereo not given)	i	0.2
COc1ccc(NC(=O)NC2(C(=O)N3CCCC3)CCCCC2)cc1	i	-1.7
CCn1c(SCC(=O)N2c3ccccc3Sc3ccccc32)nnc1-c1ccco1	i	1.6
O=C(COC(=O)COc1ccc(Cl)cc1Br)NCc1cccs1	i	1.2
COc1cc(Cl)c(C)cc1N1C(=O)CN(Cc2ccccc2)C1=S	i	2.8
CC(C)CC(=O)NC(=S)Nc1ccccc1C(F)(F)F	i	-0.18
CCN(CC(=O)Nc1ccccc1OC)C(=O)CCOc1ccc(C(C)(C)C)cc1	-6.3*	-0.77*
OCCN1CCN(C(=S)Nc2ccc(SC(F)F)cc2)CC1	i	3.5
NC(=O)C1CC(=O)N(c2ccc(OCc3ccc([N+](=O)[O-])cc3)cc2)C1 (stereo not given)	i	0.95
O=C(c1ccoc1)N1CCCC(N2CCN(c3cccc(C(F)(F)F)c3)CC2)C1 (stereo not given)	i	1.6
CCn1nnnc1SCC(=O)c1ccc(C)cc1C	i	-4.1
Cc1nnc2sc(SCC(=O)Nc3ccc(Br)cc3)nn2c1=O	i	0.04
CCOC(=O)c1cc(-c2cccc([N+](=O)[O-])c2)n[nH]1	i	-0.1
COc1cccc(Oc2ccc(C(F)(F)F)cc2NC(=O)c2cccc(F)c2)c1	-7.1*	0.89*
Cn1ncc(Cl)c1C(=O)NCc1ccco1	i	3.1

Some of the entries so far, with each value named.
CC1CCN(C(=O)CCC(=O)N2CC(C)Oc3ccccc32)CC1 (stereo not given)
  KCNQ2 inh: i | KCNQ2 inh baseline: 0.36

COc1ccc(CN(C(=O)CSc2nnc(-c3ccc(OC)c(OC)c3)o2)c2ccc(F)cc2)cc1
  KCNQ2 inh: i | KCNQ2 inh baseline: -1.6

O=C(C1CCCC1)N1CCN(S(=O)(=O)c2ccc(F)c(F)c2F)CC1
  KCNQ2 inh: i | KCNQ2 inh baseline: 0.6

COc1ccc(-c2csc3ncnc(Oc4ccc5c(C)cc(=O)oc5c4)c23)cc1
  KCNQ2 inh: i | KCNQ2 inh baseline: -0.46
